# A1 inhib = A1 inhibition | AID 2241 | MEF A1-2A-BIM cells, caspase-Glo luminescence, 3 h; percent of clofoctol signal, DMSO as zero | caspase activation, % (test concentration not listed) | 0.51% of 21,000 active;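 active = most replicate scores above 10, or exactly half above 10 with mean activity above 10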;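 note: effector caspase 3 and 7 activity cleaving a DEVD luciferin substrate; 50 nL library stock added to about 30 µL; numbers are from one replicate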
# BJeLR viability = compounds reducing viability of BJeLR cells; 0.64% of 30,000 active; viability loss activity score, % (concentration not given with the values); BJeLR fibroblasts viability, CellTiterGlo ATP luminescence, 48 h; HRASV12, hTERT and SV40 LT/ST transformed; in the data active = viability loss activity score above about 50%; about a fifth of its hits are not listed in these tables;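 note: higher score means fewer live cells and less ATP luminescence; stock transfer was 50 or 100 nL into about 30 µL; 0% = vehicle wells and 100% = a reference killing control; one replicate is shown; the record names a cut of 85%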
# An asterisk follows results filed as active; . = not tested or not shown.
SMILES,A1 inhib,BJeLR viability
COc1ccc(Cn2c(=O)[nH]c3cc(C(=O)NC4CCCCC4)ccc3c2=O)cc1,.,4.6
O=C1NCN(c2ccccc2)C12CCN(CCCC(c1ccc(F)cc1)c1ccc(F)cc1)CC2,-0.1,11
C[C@H](CO)N1C[C@H](C)[C@@H](CN(C)Cc2ccc(Oc3ccccc3)cc2)Oc2c(NC(=O)c3ccncc3)cccc2C1=O,.,-1.5
Cc1nc(SCC(C)C)c(C#N)c(C)c1C,1.8,-4.1
COc1cc(O)cc2cc3c(c(O)c12)C(=O)C[C@@](C)(O)C3,-1.8,-2.2
CCCC(C)C(=O)NCc1ccc(C)cc1 (centres undefined),-0.3,2.9
CSc1nn(-c2ccccc2)cc1C(=O)N1CCCCC1,0.6,1.7
C[C@@H]1CN([C@@H](C)CO)C(=O)c2cccc(NC(=O)C3CCCCC3)c2O[C@@H]1CN(C)C(=O)Nc1cccc2ccccc12,.,4.2
Cc1cc(OCC(=O)N(C)C2CCCCC2)ccc1Cl,-1.8,6.3
COc1ccc(S(=O)(=O)N(C)C[C@H]2Oc3ccc(NC(=O)Nc4ccc(C(F)(F)F)cc4)cc3C(=O)N([C@H](C)CO)C[C@@H]2C)cc1,-0.6,-2.9
CC12CS(=O)(=O)CC1SC(=S)N2Cc1ccccc1 (centres undefined),0.4,-2.7
C[C@@H]1CN([C@@H](C)CO)C(=O)c2cc(NC(=O)Cn3cnnn3)ccc2O[C@H]1CN(C)Cc1ccc(-c2ccccc2)cc1,0.3,-2.0
C[C@H](CO)N1C[C@H](C)[C@@H](CN(C)Cc2ccc(C(=O)O)cc2)Oc2c(cccc2N(C)C)C1=O,.,-0.3
CCNS(=O)(=O)c1ccc(-c2oc3cc(S(=O)(=O)NCC)ccc3c2Cl)cc1,-0.1,-0.5
C[C@H]1CN([C@@H](C)CO)C(=O)c2cccc(NC(=O)c3nc4ccccc4s3)c2O[C@H]1CN(C)CC1CCCCC1,.,6.1
C[C@H]1CN([C@@H](C)CO)C(=O)c2cc(NC(=O)C3CC3)ccc2O[C@H]1CN(C)Cc1ccncc1,-0.9,-3.9
CC(C)NC(=O)N(C)C[C@@H]1Oc2c(NC(=O)c3ccc(-c4nccs4)cc3)cccc2C(=O)N([C@H](C)CO)C[C@H]1C,.,3.7
Cc1ccc(S(=O)(=O)N(C)C[C@H]2Oc3ccc(NC(=O)Nc4cccc5ccccc45)cc3C(=O)N([C@H](C)CO)C[C@H]2C)cc1,1.4,-3.8
O=C(NC(C(F)(F)F)C(F)(F)F)OCc1ccccc1,1.0,-3.0
C[C@@H]1CN([C@@H](C)CO)C(=O)c2cc(NC(=O)Nc3cccc4ccccc34)ccc2O[C@H]1CN(C)Cc1ccc(Cl)c(Cl)c1,0.1,-6.6
C[C@H](CO)N1C[C@H](C)[C@H](CN(C)Cc2ccc3c(c2)OCO3)Oc2ccc(NC(=O)NC3CCCCC3)cc2C1=O,1.6,3.1
CCN(C(=O)c1cnccc1C(F)(F)F)c1ccc(Cl)cc1Cl,0.3,4.2
COc1ccc(NC(=O)N(C)C[C@H]2Oc3ccc(NC(=O)Nc4c(C)noc4C)cc3C(=O)N([C@H](C)CO)C[C@H]2C)cc1,0.4,1.7
CCOC(=O)c1ccc(NC2CCCc3c2[nH]c2ccc(C)cc32)cc1 (centres undefined),.,36
CN(C)C=NC(=O)c1sc(S(C)(=O)=O)c2c1CCC=C2,0.6,-3.4

# Among those listed so far, these have a CF3 group:
SMILES,A1 inhib,BJeLR viability
COc1ccc(S(=O)(=O)N(C)C[C@H]2Oc3ccc(NC(=O)Nc4ccc(C(F)(F)F)cc4)cc3C(=O)N([C@H](C)CO)C[C@@H]2C)cc1,-0.6,-2.9
O=C(NC(C(F)(F)F)C(F)(F)F)OCc1ccccc1,1.0,-3.0
CCN(C(=O)c1cnccc1C(F)(F)F)c1ccc(Cl)cc1Cl,0.3,4.2

# By substructure, the compounds so far with an NH in an aromatic ring.
SMILES,A1 inhib,BJeLR viability
COc1ccc(Cn2c(=O)[nH]c3cc(C(=O)NC4CCCCC4)ccc3c2=O)cc1,.,4.6
CCOC(=O)c1ccc(NC2CCCc3c2[nH]c2ccc(C)cc32)cc1 (centres undefined),.,36

# The results go on:
SMILES,A1 inhib,BJeLR viability
CC1CCN(c2ncnc3c2cnn3Cc2ccc(Cl)cc2)CC1,1.0,-2.2
CC(C)NC(=O)N(C)C[C@@H]1Oc2c(NS(=O)(=O)c3ccc(F)cc3)cccc2C(=O)N([C@@H](C)CO)C[C@@H]1C,.,-6.1
CC(C)COC(=O)C1C2C=CC3(CN(Cc4cccs4)C(=O)C13)O2 (centres undefined),.,-2.7
O=C(Cn1cc(C(=O)C2CCCCC2)c2ccccc21)Nc1ccccc1,.,3.0
Cc1cccc(-c2nc(CS(=O)CC(=O)NC3CCCCCC3)c(C)o2)c1 (centres undefined),.,-6.2
C[C@@H]1CN([C@H](C)CO)C(=O)c2cc(N(C)C)ccc2O[C@H]1CN(C)Cc1ccc(C(=O)O)cc1,-0.2,-2.0
Cc1ccc(Nc2ccc3noc4c3c2C(=O)c2ccccc2-4)cc1,-0.8,13
COc1ccc(CN(C)C[C@H]2Oc3c(NC(=O)c4ccc(-c5nccs5)cc4)cccc3C(=O)N([C@@H](C)CO)C[C@H]2C)cc1,.,-2.2
Cc1nn(C(N)=S)c2c1CC(COCCC(C)C)O2 (centres undefined),-0.1,-2.6
O=C(/C=C/c1ccc(O)cc1)OC[C@H]1O[C@@H](Oc2cc(O)c3c(c2)OC(c2ccc(O)cc2)CC3=O)[C@H](O)[C@@H](OC(=O)/C=C/c2ccc(O)cc2)[C@@H]1O (some centres undefined),0.6,2.6
COc1ccc(C(CC(=O)NCc2ccc(C)cc2)N2Cc3ccccc3C2=O)cc1OC (centres undefined),-0.4,-3.5
C=CCNc1ncnc2c1c(-c1ccccc1)cn2-c1cccc(C(F)(F)F)c1,-0.6,-7.6
O=C(C1CCCCC1)N(c1ccc2oc3c(c2c1)CCCC3)S(=O)(=O)c1cccs1,.,1.5
NNC(=O)c1cccc(Cn2cccn2)c1,0.9,-2.4
C[C@@H]1CN([C@@H](C)CO)C(=O)c2cccc(NC(=O)c3ccncc3)c2O[C@H]1CN(C)S(=O)(=O)c1ccccc1,.,4.9
C[C@@H]1CN([C@@H](C)CO)C(=O)c2cccc(NC(=O)Nc3ccc4c(c3)OCO4)c2O[C@H]1CN(C)C(=O)Nc1ccc(C(F)(F)F)cc1,.,-2.5
C=CCn1c(N)cc(=O)nc1SC(C)C(=O)Nc1ccccc1 (centres undefined),-0.1,2.7
CNC[C@@H]1Oc2c(NC(=O)c3ccc(-c4nccs4)cc3)cccc2C(=O)N([C@@H](C)CO)C[C@@H]1C,.,-0.1
CC1=C[C@H](O)[C@H]2C(C)(C)CCC[C@]2(C)[C@@]1(O)CO,0.8,-3.3
C[C@H]1CN([C@@H](C)CO)C(=O)c2cc(NC(=O)C3CCCCC3)ccc2O[C@H]1CN(C)S(=O)(=O)c1ccc(F)cc1,-0.5,-1.2
COC1C(OC)N(S(=O)(=O)c2ccc(C)cc2)CCN1S(=O)(=O)c1ccc(C)cc1 (centres undefined),0.5,4.6
O=C(c1sc(N2CCOCC2)nc1-c1ccccc1)c1c[nH]c2ccccc12,0.4,2.4
COc1ccccc1N(CC(=O)NCc1ccco1)S(C)(=O)=O,0.8,-5.4
COc1ccc(N(C)C(=O)c2cn(C3CCCC3)c(=O)c3c2c2ccccc2n3C)cc1,.,-0.1
N#CCCn1c(-c2cncs2)nc2ccccc21,0.7,9.8

# Grouped by structure: those above with a cyano group
SMILES,A1 inhib,BJeLR viability
Cc1nc(SCC(C)C)c(C#N)c(C)c1C,1.8,-4.1
N#CCCn1c(-c2cncs2)nc2ccccc21,0.7,9.8

# Pulled one by one from the entries so far, 2 records:
SMILES,A1 inhib,BJeLR viability
COC1C(OC)N(S(=O)(=O)c2ccc(C)cc2)CCN1S(=O)(=O)c1ccc(C)cc1 (centres undefined),0.5,4.6
C[C@@H]1CN([C@@H](C)CO)C(=O)c2cccc(NC(=O)Nc3ccc4c(c3)OCO4)c2O[C@H]1CN(C)C(=O)Nc1ccc(C(F)(F)F)cc1,.,-2.5

# Further structures follow.
SMILES,A1 inhib,BJeLR viability
COc1ccc(Cl)cc1NC(=O)CN1C(=O)CC(c2ccccc2)S(=O)(=O)c2ccccc21 (centres undefined),0.1,-12
COCc1[nH]c(=S)[nH]c(=O)c1Cc1c(F)cccc1Cl,0.5,3.5
Oc1ccccc1-c1nnc(SCc2ccccc2)n1-c1ccccc1,-0.5,-2.7
COC(=O)C1=NNC(C(=O)OC(C)(C)C)C1c1ccccc1 (centres undefined),0.3,-4.5
C[C@@H]1CN([C@@H](C)CO)C(=O)c2cc(NS(=O)(=O)c3ccc(Cl)cc3)ccc2O[C@@H]1CN(C)CC1CC1,-0.4,-2.6
CCOc1ccccc1NC(=S)N(Cc1c[nH]c2ccccc12)C(C)C,.,0.1
C[C@@H]1CN([C@@H](C)CO)C(=O)c2cccc(NC(=O)NC3CCCCC3)c2O[C@@H]1CN(C)S(=O)(=O)c1ccc(F)cc1,.,-8.2
COc1ccc(S(=O)(=O)Nc2ccc3c(c2)C(=O)N([C@H](C)CO)C[C@H](C)[C@H](CN(C)C(=O)Nc2c(C)noc2C)O3)cc1,-0.3,2.8
O=c1[nH]ncc(NCC2CCCO2)c1Cl (centres undefined),0.1,0.8
Nc1ncc(Br)cc1S(=O)(=O)NCCc1ccccc1,0.2,1.0
N#CC1=C(SCC(=O)Nc2ccc(F)cc2)NC(=O)C(C#N)C12CCCCC2 (centres undefined),1.1,9.8
CC(C)CNC(=O)c1cc2n(n1)C(C(F)(F)F)CC(c1ccco1)N2 (centres undefined),0.1,-0.5
CNC(=O)c1cccc2c1-c1ccccc1C2=O,-0.8,2.1
CC1=Nc2ccc(C(F)(F)F)cc2C1(C)C,-0.2,1.3
CCc1ccc(NC(=O)c2cc3cc4ccc(C)cc4nc3o2)cc1,.,14
COc1ccc(S(=O)(=O)N(C)C[C@@H]2Oc3ccc(NS(C)(=O)=O)cc3C(=O)N([C@H](C)CO)C[C@@H]2C)cc1,0.3,2.3
CSc1n[nH]c(-c2cccc(Cl)c2)c1C#N,-1.1,-9.0
COc1ccc(S(=O)(=O)Nc2cccc3c2O[C@H](CN(C)C(=O)NC2CCCCC2)[C@H](C)CN([C@@H](C)CO)C3=O)cc1,.,-5.7
C[C@@H]1CN([C@H](C)CO)C(=O)c2cc(NC(=O)Nc3cccc4ccccc34)ccc2O[C@@H]1CN(C)C(=O)NC1CCCCC1,0.6,-2.3
O=c1c2ccccc2[nH]c(=S)n1CCN1CCC(=C(c2ccc(F)cc2)c2ccc(F)cc2)CC1,0.4,0.0
O=c1c(O[C@@H]2OC[C@H](O)[C@H](O)[C@H]2O)c(-c2ccc(O)cc2)oc2cc(O)cc(O)c12,0.3,7.8
C[C@H]1CN([C@@H](C)CO)C(=O)c2cccc(NC(=O)Nc3ccc4c(c3)OCO4)c2O[C@@H]1CN(C)C(=O)Nc1ccc(F)cc1,.,-1.6
CC(=O)Oc1ccc(C(=O)N(C(=O)c2ccc(OC(C)=O)cc2)c2cc(C)ccn2)cc1,.,29
Cc1noc(C)c1NC(=O)Nc1ccc2c(c1)C(=O)N([C@@H](C)CO)C[C@H](C)[C@@H](CN(C)C(=O)Nc1ccc3c(c1)OCO3)O2,0.2,1.8
CNC[C@H]1Oc2ccc(NC(=O)CCC(F)(F)F)cc2C(=O)N([C@@H](C)CO)C[C@@H]1C,1.0,-4.2
# Additional structures
SMILES,A1 inhib,BJeLR viability
COc1cc(C(C)=O)cc(OC)c1O,0.4,-0.1
Cn1c(=Nc2ccc(N3CCOCC3)cc2)ccc2ccccc21,0.3,-6.5
CCN1CCN(C(=O)/C=C\C(=O)O)CC1,1.5,-5.5
C[C@H](CO)N1C[C@H](C)[C@H](CN(C)Cc2ccc3c(c2)OCO3)Oc2c(NS(=O)(=O)c3ccc(F)cc3)cccc2C1=O,.,0.6
C[C@@H]1CN([C@H](C)CO)C(=O)c2cc(NS(=O)(=O)c3cn(C)cn3)ccc2O[C@H]1CN(C)Cc1ccccc1,0.9,-0.8
C[C@@H]1CN([C@@H](C)CO)C(=O)c2cccc(NC(=O)C3CCOCC3)c2O[C@@H]1CN(C)S(=O)(=O)c1ccc(F)cc1,.,1.1
C[C@@H]1CN([C@H](C)CO)C(=O)c2cc(NC(=O)C3CCCCC3)ccc2O[C@H]1CN(C)S(C)(=O)=O,0.4,0.8
Cc1noc(C)c1NC(=O)Nc1ccc2c(c1)C(=O)N([C@@H](C)CO)C[C@H](C)[C@@H](CN(C)C(=O)Nc1c(C)noc1C)O2,-0.3,1.8
O=C(c1cc2cc(Br)ccc2oc1=O)N1CCOCC1,0.2,-2.6
C[C@@H]1CN([C@@H](C)CO)C(=O)c2cccc(NC(=O)Nc3ccccc3)c2O[C@@H]1CN(C)C(=O)Nc1ccccc1,.,-2.6
C[C@H]1CN([C@@H](C)CO)C(=O)c2cc(NS(=O)(=O)c3ccc(F)cc3)ccc2O[C@H]1CN(C)Cc1ccccc1,-0.3,0.7
Cn1c(=O)c2cc(C(=O)NCC3(c4ccccc4)CCCC3)sc2c2ccccc21,.,-2.9
Cc1noc(C)c1NC(=O)N(C)C[C@@H]1Oc2ccc(NS(=O)(=O)c3cn(C)cn3)cc2C(=O)N([C@@H](C)CO)C[C@H]1C,0.4,-3.3
C[C@@H]1CN([C@H](C)CO)C(=O)c2cc(NC(=O)Nc3ccc4c(c3)OCO4)ccc2O[C@H]1CN(C)C(=O)Nc1cccc2ccccc12,-0.4,0.8
C[C@@H]1CN([C@@H](C)CO)C(=O)c2cc(NC(=O)Nc3cccc4ccccc34)ccc2O[C@H]1CN(C)C(=O)NC1CCCCC1,-1.2,-1.4
C[C@@H]1CN([C@@H](C)CO)C(=O)c2cc(NC(=O)C3CCCCC3)ccc2O[C@@H]1CN(C)Cc1ccc(Oc2ccccc2)cc1,0.7,-8.3

# Screening data as filed in PubChem BioAssay.

# An excerpt; rates above refer to the full screens.
